Assay outcomes from PubChem BioAssay.
HPGD block: blocks human HPGD enzyme activity | purified HPGD, NADH fluorescence kinetic, PGE2 substrate | P15428 | Potency, µM, inactives show top-dose activity change, negative = inhibition, actives largely listed as inhibitors | 150,000 compounds, 4.3% hits | AID 894; active = well fitted inhibition curve with a large enough effect (not every such curve was filed as active); inconclusive = small, poorly fitted or top-dose-only effect, or another doubt; inactive = no such curve, though single readings can be large or run the other way;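 note: top concentration of the series not given in the record; plate controls included wells without enzyme; inactives centre near -10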
Target sequence (P15428 whole entry, looked up): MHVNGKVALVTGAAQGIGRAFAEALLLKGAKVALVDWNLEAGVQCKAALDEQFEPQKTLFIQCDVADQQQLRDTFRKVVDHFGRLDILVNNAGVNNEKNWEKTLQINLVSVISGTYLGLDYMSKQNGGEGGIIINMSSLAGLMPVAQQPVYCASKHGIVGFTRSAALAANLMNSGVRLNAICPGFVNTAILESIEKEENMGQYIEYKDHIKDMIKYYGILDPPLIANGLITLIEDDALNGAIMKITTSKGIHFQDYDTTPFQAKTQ
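NADH formation kinetics: reaction with 30 uM PGE2 and 1 mM NAD+ (final), 20 nM enzyme, Tris-HCl pH 8 with Tween 20, after 15 min compound preincubation at room temperature. Fluorescence change, last versus first of five reads.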
Numbers without * were called inactive; ? = inconclusive. % is set by controls: 0 for no effect and ±100 for the full control effect; potency is the fitted concentration of half-maximal effect.

> CCCCNS(=O)(=O)c1ccc2nc(SCC(=O)c3ccccc3OC)[nH]c2c1
  HPGD block: 28.2µM*

> CCc1ccc(NC(=O)c2ccccc2NC(=O)C2CCCO2)cc1 (stereo not drawn)
  HPGD block: -18.6%

> CCOc1ccc(NS(=O)(=O)c2ccc(OCC(=O)NCCCOC)cc2)cc1
  HPGD block: -6.9%

> Clc1ccc(-c2nnc(-c3ccccc3)o2)c(Cl)c1
  HPGD block: ?

> CC(C)n1c(-c2cccnc2)nc2cnccc21
  HPGD block: -13.7%

> COC(=O)Nc1sccc1C(=O)Nc1sccc1C(=O)OC
  HPGD block: -19.4%

> CCc1nnc(NC(=O)CSc2nc(-c3ccccc3)cc(-c3ccc(OC)cc3)c2C#N)s1
  HPGD block: ?

> COC(=O)/C=C/CSC1=N/C(=C/c2ccc(-n3cncn3)cc2)C(=O)N1
  HPGD block: -26.8%

> COC(=O)c1ccc(C2C(Oc3ccccc3C)C(=O)N2CCc2ccc(OC)c(OC)c2)cc1 (stereo not drawn)
  HPGD block: ?

> COc1ccc2nc(NC(=O)c3cc(C)oc3C)sc2c1
  HPGD block: ?

> O=C(Nc1cccc(-c2nnc(-c3ccco3)o2)c1)C(c1ccccc1)c1ccccc1
  HPGD block: -26.0%

> O=C(NCCN1CCOCC1)c1cc(-c2cccs2)on1
  HPGD block: 1.3%

> CCOC(=O)c1sc2nc(SCC#N)n(CC3CCCO3)c(=O)c2c1C (stereo not drawn)
  HPGD block: -13.6%

> COc1cc(-c2nc(-c3ccccc3)c(-c3cc([N+](=O)[O-])ccc3C)[nH]2)cc(OC)c1OC
  HPGD block: -16.4%

> CCN(CC)c1ccc(/C=N/N2CCN(Cc3ccc(C)cc3)CC2)c(O)c1
  HPGD block: -10.4%

> CN(C)CCc1cc2c(c3c1ccc1ccccc13)OCO2
  HPGD block: -14.1%

> OCCO
  HPGD block: -18.6%

> O=[N+]([O-])c1ccc(S(=O)(=O)Nc2ccc(-c3csc(-c4ccccc4)n3)cc2)cc1
  HPGD block: -15.4%

> CCOC(=O)c1[nH]c2cc(OC)c(OC)cc2c1NC(=O)CN1CCN(c2ccc(OC)cc2)C(C)C1 (stereo not drawn)
  HPGD block: ?

> COc1ccc(N2CC(C(=O)NCCCN3CCOCC3)CC2=O)cc1 (stereo not drawn)
  HPGD block: -1.2%

> COc1ccc(Br)cc1CNC(=O)C1CCN(S(=O)(=O)N2CCC(C)CC2)CC1
  HPGD block: -11.1%

> Cc1ccc(SCC(=O)Nc2ccc(N3CCN(C)CC3)c(F)c2)cc1
  HPGD block: -9.7%

> CN(C)[C@@H]1C(=O)C(C(N)=O)=C(O)[C@]2(O)C(=O)C3=C(O)c4c(O)ccc(Cl)c4[C@H](O)[C@H]3C[C@@H]12
  HPGD block: -6.4%

> O=C(O)c1ccc(NC(=S)NC(NC(=O)c2ccco2)C(Cl)(Cl)Cl)cc1 (stereo not drawn)
  HPGD block: -13.6%

> O=C(NCc1cccnc1)c1ccc2c(c1)OCO2
  HPGD block: -14.7%

> CN(C)CCCNC(CC(=O)Nc1cccc([N+](=O)[O-])c1)C(=O)O (stereo not drawn)
  HPGD block: -12.7%

> COc1ccc(NC(=O)c2ccc(-c3ccccc3C(F)(F)F)o2)cc1
  HPGD block: -8.9%

> COc1ccc(OC)c(NC(=O)C(=O)NCCC2=CCCCC2)c1
  HPGD block: -6.3%

> CCc1cc2c(NC(C(=O)O)C(C)C)ncnc2s1 (stereo not drawn)
  HPGD block: -5.7%

> COC(=O)CNC(c1ccccc1)c1cc(C)ccc1NC(=O)CNC(=O)OCc1ccccc1 (stereo not drawn)
  HPGD block: -8.4%

> CC(Sc1nnnn1-c1ccccc1)C(=O)Nc1ccccc1-c1ccccc1 (stereo not drawn)
  HPGD block: -1.0%

> O=C(N/N=C/c1ccc(-c2cccc(C(F)(F)F)c2)o1)c1ccccc1O
  HPGD block: -25.0%

> N#CCCn1cc(/C=N/NC(=O)c2ccncc2)c(-c2ccc(F)cc2)n1
  HPGD block: -7.5%

> CCOC(=O)CS(=O)(=O)c1nc(-c2ccccc2)cc(C(F)(F)F)n1
  HPGD block: 14.1µM*

> O=C1/C(=C/Nc2cccc([N+](=O)[O-])c2)CCc2ccccc21
  HPGD block: -15.5%

> O=c1[nH]c(=O)n(CCOc2ccc(Cl)cc2)cc1Br
  HPGD block: -9.9%

> COc1cc(-c2noc(CCCC(=O)NCc3ccccc3)n2)cc(OC)c1OC
  HPGD block: -14.5%

> O=C(COC(=O)c1ccc(Br)cc1)NCc1ccccc1
  HPGD block: ?

> Cc1cccc(-c2c3c(=O)n(C)c(=O)n(C)c3c3cccnn23)c1
  HPGD block: -1.5%

> CCS(=O)(=O)N1CCN(CC2CC3C=CC2C3)CC1 (stereo not drawn)
  HPGD block: 3.9%

> O=C(Nc1ccc([N+](=O)[O-])cc1)C1(c2ccccc2)CCOCC1
  HPGD block: -19.7%

> OC(CCCN1CCC(O)(c2ccc(Cl)cc2)CC1)c1ccc(F)cc1 (stereo not drawn)
  HPGD block: -18.8%

> CC(/C=N/NC(=O)Cc1cc(=O)[nH][nH]1)=C\c1ccccc1
  HPGD block: -23.1%

> Cc1ccc(SCC2(O)CCN(C(=O)c3ccc(Cl)cc3)CC2)cc1
  HPGD block: -3.5%

> COc1ccc(-n2nc([N+](=O)[O-])c(=NCc3ccc4c(c3)OCO4)n2O)cc1
  HPGD block: -16.6%

> COc1ccc(N(CC(=O)N2CC=C(c3ccccc3)CC2)S(=O)(=O)c2c(C)noc2C)cc1
  HPGD block: -3.2%

> CCCCOc1ccc(N2C(=O)CC(N(CCc3ccccc3)C(=O)/C=C/C(=O)O)C2=O)cc1 (stereo not drawn)
  HPGD block: -9.8%

> O=C(CCCCCN1C(=O)c2ccccc2C1=O)NCc1ccco1
  HPGD block: 11.2µM*

> Cc1cc(Cl)cc2c1NC(=O)[C@]21[C@@H]2C(=O)N(Cc3ccccc3)C(=O)[C@@H]2[C@@H]2CCCN21
  HPGD block: -5.6%

> COc1cc(/C=C2/C(=O)NN(c3cccc(F)c3)C2=O)ccc1OC(=O)c1ccco1
  HPGD block: 3.98µM*

> COc1ccc(C(=O)c2c(C(F)(F)F)oc3c2C(=O)c2ccccc2C3=O)cc1
  HPGD block: -16.0%

> COc1cc(C2C3=C(CC(C)(C)CC3=O)Nc3c2c(=O)[nH]c(=O)n3Cc2ccccc2)ccc1O (stereo not drawn)
  HPGD block: ?

> CCN1CCCC1CNC(=O)Cn1cccc1C(=O)c1ccccc1 (stereo not drawn)
  HPGD block: -14.2%

> CC1=CC(C)C2(CO)COC(c3cccnc3)C1C2C (stereo not drawn)
  HPGD block: 0.9%

> CCC(C)Oc1ccccc1C1CC(=O)NC2=C1C(=O)CCC2 (stereo not drawn)
  HPGD block: -10.5%

> O=C(NCCC1=CCCCC1)C1CCCN(S(=O)(=O)c2cnc[nH]2)C1 (stereo not drawn)
  HPGD block: -0.9%

> O=c1cc(-c2ccccc2)nc2nc[nH]n12
  HPGD block: -8.4%

> COc1ccc(CNc2ccc(C)cc2)cc1Br
  HPGD block: -27.7%

> CCOC(=O)C1CCCN(CC(=O)Nc2c(C(=O)OC)[nH]c3ccc(C)cc23)C1 (stereo not drawn)
  HPGD block: ?

> COC(=O)C(Cc1ccc(OC(=O)c2ccc(C(F)(F)F)cc2)cc1)N1Cc2ccccc2C1=O (stereo not drawn)
  HPGD block: -19.5%

> Cc1ccc(S(=O)(=O)NC(CC(=O)NCC2CCCO2)c2ccco2)cc1 (stereo not drawn)
  HPGD block: -4.6%

> Cc1noc(C)c1CSc1nc2[nH]ncc2c(=O)n1-c1ccccc1
  HPGD block: -13.6%

> O=S(=O)(/N=C(/Nc1cccc2ccccc12)c1ccccc1)c1cccs1
  HPGD block: -15.8%

> C=CCNc1nc(N2CCOCC2)nc(N2CCOCC2)n1
  HPGD block: -4.9%

> Cc1cc(Nc2ccccc2)nc(-c2ccccc2O)n1
  HPGD block: -16.8%

> O=C(Cc1ccc(Br)cc1)Nc1ccccc1Cl
  HPGD block: -3.3%

> CCOC(=O)c1sc2nc(N3CCCC3)c3c(c2c1N)CC(C)(C)OC3
  HPGD block: ?

> COc1ccc(C(=O)N2CCC3(CCCN(Cc4nccs4)C3)CC2)cc1
  HPGD block: -10.7%

> COc1cc(S(=O)(=O)NCCN2CCOCC2)c(OC)cc1Cl
  HPGD block: 6.1%

> CCOC(=O)N1CCN(C(=O)c2ccc(S(=O)(=O)c3ccc(C)cc3)c(NC(C)=O)c2)CC1
  HPGD block: -2.1%

> O=C(Nc1ccc2c(c1)nc1n2CCN(C2CCCCC2)C1)NC1CCCCC1
  HPGD block: ?

> N[C@@H](C(=O)O)c1ccc(O)c(C(=O)O)c1
  HPGD block: ?

> O=C(Nc1nc2c(cc3c4c(cccc42)CC3)s1)c1ccccc1Cl
  HPGD block: ?

> O=C(Oc1cccc(Nc2ncnc3ccccc23)c1)c1ccccc1Cl
  HPGD block: ?

> COc1ccc(/C(O)=C2/C(=O)C(=O)N(CC3CCCO3)C2c2cccc(OC)c2)cc1 (stereo not drawn)
  HPGD block: -15.2%

> CCc1nnc(NC(=O)c2ccc(S(=O)(=O)N3CCN(Cc4ccccc4)CC3)cc2)s1
  HPGD block: -23.8%

> COc1ccccc1NC(=O)Cn1nc(-c2ccc(Cl)cc2)c2ccccc2c1=O
  HPGD block: -6.9%

> Cc1cccc(OCC(=O)Nc2ccccc2-c2ccccc2)c1
  HPGD block: -9.3%

> COc1cc(/C=C/C(C)=O)cc(OC)c1OC
  HPGD block: -23.8%

> CCCc1nc2scc(-c3ccccc3)c2c(=O)n1N
  HPGD block: -13.0%

> CS(=O)(=O)N1CCC2(CC1)CN(c1ccncc1)C2
  HPGD block: -9.9%

> CCc1cc2ccc(C)cc2nc1SCC(=O)NNC(=O)c1ccco1
  HPGD block: -0.1%

> CCc1nnc(NC(=O)CSc2ncnc3scc(-c4ccc(C)cc4)c23)s1
  HPGD block: -2.8%

> O=C(CN1CCN(S(=O)(=O)c2ccccc2)CC1)Nc1ccccc1C(=O)c1ccccc1
  HPGD block: -3.2%

> N#C/C(=C\c1ccc(Sc2ccccc2)o1)c1nc2ccccc2[nH]1
  HPGD block: -12.5%

> CCSc1nnc(NC(=O)Cc2ccccc2OC)s1
  HPGD block: -12.4%

> CN1CCc2c(sc3c2C(=O)NC(c2cn(Cc4ccccc4)c4ccccc24)N3)C1 (stereo not drawn)
  HPGD block: ?

> COc1ccc(N2CCN(c3ccc(NC(=O)c4ccc5c(c4)OCO5)cc3C#N)CC2)cc1
  HPGD block: -19.3%

> O=C(CSc1nnc(-c2cccnc2)n1-c1ccccc1)Nc1ccccc1
  HPGD block: -14.7%

> Cc1onc(-c2ccccc2Cl)c1C(=O)N(C)C1CCCCC1
  HPGD block: -13.7%

> O=C(NC1CCCCC1)C(c1ccc(F)cc1)N(Cc1ccccc1)C(=O)CN1C(=O)c2ccccc2S1(=O)=O (stereo not drawn)
  HPGD block: -1.1%

> CCC(C)NCCOCCOc1ccc(Cl)c(C)c1C (stereo not drawn)
  HPGD block: 4.9%

> NCC1O[C@@H](O[C@@H]2C(O)[C@H](O[C@H]3OC(CO)C(O)C(N)C3O)[C@@H](N)C[C@H]2N)C(N)C(O)C1O (stereo partly drawn)
  HPGD block: -11.5%

> COC(=O)C1=C(N)OC2=C(C(=O)CCC2)C1c1cccs1 (stereo not drawn)
  HPGD block: ?

> COc1cccc(C2N(c3ccc(Cl)cc3)C(=O)C3CCCN32)c1 (stereo not drawn)
  HPGD block: -14.7%

> Cc1ccc(OCc2nc(C#N)c(NCc3ccco3)o2)cc1
  HPGD block: -26.1%

> O=C(Cn1ccsc1=NC(=O)C(F)(F)F)c1ccccc1
  HPGD block: -4.1%

> Cc1oc2c(C)c(O)ccc2c(=O)c1N1C(=O)c2ccccc2C1=O
  HPGD block: -9.9%

> Cn1c2c(c(=O)n(C)c1=O)C(CC(=O)Nc1ccccc1)C(=O)N2 (stereo not drawn)
  HPGD block: -6.5%

> CCOC(=O)c1c(NC(=O)C2COc3ccccc3O2)sc2c1CCN(Cc1ccccc1)C2 (stereo not drawn)
  HPGD block: ?

> O=C(c1ccco1)N1CCC2(CC1)CN(c1ccc(-c3ccccc3)cc1)C2
  HPGD block: -10.4%

> COCC(C)n1c(C)cc(C(=O)COC(=O)c2ccc3c(c2)NC(=O)CS3)c1C (stereo not drawn)
  HPGD block: -7.5%

> O=C(c1cccc(C(F)(F)F)c1)N1CCCC1
  HPGD block: -2.2%

> CC(C)[C@H](NC(=O)c1ccccc1)C(=O)OCC(=O)N1CC2(C)CC1CC(C)(C)C2 (stereo partly drawn)
  HPGD block: -5.4%

> COc1nc(-c2ccccc2)ccc1-c1noc(-c2ccc(F)cc2)n1
  HPGD block: ?

Arranged by the number under HPGD block (ascending): 3 from the list above
> O=C(CCCCCN1C(=O)c2ccccc2C1=O)NCc1ccco1
  HPGD block: 11.2µM*

> CCOC(=O)CS(=O)(=O)c1nc(-c2ccccc2)cc(C(F)(F)F)n1
  HPGD block: 14.1µM*

> CCCCNS(=O)(=O)c1ccc2nc(SCC(=O)c3ccccc3OC)[nH]c2c1
  HPGD block: 28.2µM*

New compounds follow
> Cc1nc(N2CCN(S(=O)(=O)c3cccc4nonc34)CC2)c2c3c(sc2n1)CCCC3
  HPGD block: -5.7%

> COc1ccc(N2C(=O)CSC2c2cccs2)cc1 (stereo not drawn)
  HPGD block: -5.4%

> COc1ccc(OCCCC(=O)N2CCCc3ccccc32)cc1
  HPGD block: -14.1%

> COc1cc(OC)nc(NC2OC(=O)c3ccccc32)n1 (stereo not drawn)
  HPGD block: -8.5%

> O=C(NC1=NCCS1)c1ccc(OCC2CCCO2)cc1 (stereo not drawn)
  HPGD block: -10.1%

> O=C1C(c2ccc(F)cc2)N(Cc2ccc3c(c2)OCO3)C(=O)CN1C1CCCC1 (stereo not drawn)
  HPGD block: -2.7%

> O=C(Nc1ccccc1)Nc1ccc(Br)cc1F
  HPGD block: -4.2%

> CCOc1ccc(Cl)cc1/C=N/O
  HPGD block: 11.2µM*

> CC(C)c1ccc(NCCC(=O)c2cccs2)cc1
  HPGD block: -11.5%

Only part of the results is shown. The share of hits here may be higher or lower than overall.
